Compound activity deposited in PubChem by National Center for Advancing Translational Sciences (NCATS).
Six1-Eya2 blk: blocks human Six1 binding to Eya2; AlphaScreen GST-Six1/His-Eya2 binding, biochemical; active compounds read low; control for the full effect not named in the record; activity change, % (test concentration not listed); Q15475+O00167; 0.56% of 360,000 active; in the data active = activity change below about -65%; inconclusive = about -30% to -65%; inactive = above about -30%; note: % is set by controls: 0 for no effect and ±100 for the full control effect
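AlphaScreen with GST-Six1 and His-Eya2 (5X mix: 250 nM and 500 nM), glutathione donor and nickel acceptor beads; buffer 50 mM Tris pH 8.0, 300 mM NaCl, 1 mM TCEP; 1 h at 37 C in the dark.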
PINK1 modulator: modulators of PINK1 expression. Potency, µM (top dose mostly 76.6 µM), for inactives: at the top dose activation (PINK1 increase), actives largely listed as activators. PINK1 immunofluorescence, high-content cytometry, 24 h. 0.2% of 410,000 active. AID 624263; active = well fitted activation curve with a large enough effect; inconclusive = small, poorly fitted or top-dose-only effect; inactive = flat fitted curve, though single readings scatter; cell line not stated here;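 note: potency is the fitted concentration of half-maximal effect; % of control where 0% means no effect; nearly all actives have a fitted effect of over 65% in size; a mitochondrial uncoupler was the plate control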
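Decision-based qHTS: stable cells, 24 h exposure to five compound concentrations, CCCP as control. Fixed cells stained for PINK1 plus nuclear, mitochondrial and cell markers, cytometer read.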
D2 potentiator: human D2 receptor positive allosteric modulation; P14416; DiscoveRx D2 beta-arrestin cells, luminescence, 90 min; 100% = 57 uM dopamine signal; potentiation, % (concentration not given with the values); 0.23% of 360,000 active; AID 624464; active = potentiation of 50% or more; inconclusive = 30% to 50%; inactive = 30% or less;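 note: compound concentration not given in the record; tested on top of an EC20 dose of dopamine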
Target sequence (P14416 whole entry, looked up): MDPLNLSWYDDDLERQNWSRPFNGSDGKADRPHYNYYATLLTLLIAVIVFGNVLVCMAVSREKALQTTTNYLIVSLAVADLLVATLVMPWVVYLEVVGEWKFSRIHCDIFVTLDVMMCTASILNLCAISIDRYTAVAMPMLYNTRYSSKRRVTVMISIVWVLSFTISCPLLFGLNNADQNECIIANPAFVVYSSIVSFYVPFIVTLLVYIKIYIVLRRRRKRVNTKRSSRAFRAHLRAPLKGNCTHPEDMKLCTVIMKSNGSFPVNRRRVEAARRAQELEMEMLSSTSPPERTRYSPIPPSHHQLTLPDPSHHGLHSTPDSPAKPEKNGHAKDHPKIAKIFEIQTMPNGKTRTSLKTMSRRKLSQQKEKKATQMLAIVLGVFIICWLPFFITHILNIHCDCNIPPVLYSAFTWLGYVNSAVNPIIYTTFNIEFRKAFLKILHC
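D2 cells co-treated with compound plus 50 nM dopamine (EC20) for 90 min at 37 deg C to detect potentiation. Beta-arrestin recruitment was read as enzyme-fragment luminescence after 1 h at ambient temperature. Full response was set by 57 uM dopamine.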
D2 ag: human D2 receptor agonism in beta-arrestin assay | AID 624465 | DiscoveRx PathHunter D2 beta-arrestin, luminescence, 90 min; 100% = 57 uM dopamine signal | P14416 | activation, % (concentration not given with the values) | 0.084% of 360,000 active; in the data active = activation above about 40%; inconclusive = about 15% to 40%; inactive = below about 15%; note: compound concentration not given in the record; the text of the record calls up to 30% inactive
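Agonist mode: compounds alone added to overnight-plated D2 PathHunter cells for 90 min at 37 C, with 57 uM final dopamine (EC100) defining full response. Beta-arrestin recruitment detected by chemiluminescent reagent, read after 1 h at ambient temperature.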
TRPML1 agonist: agonists of human TRPML1 channel; Q9GZU1; TRPML1-expressing cells, Ca2+ dye fluorescence, FDSS; host cell line not named in the record; reference of the full effect not given here; activation, % (test concentration not listed); 0.12% of 410,000 active; in the data active = activation above about 50%; inconclusive = about 30% to 50%; inactive = below about 30%; note: 0% is about no effect; the text of the record puts the active cut at 80%
Target sequence (Q9GZU1 whole entry, looked up): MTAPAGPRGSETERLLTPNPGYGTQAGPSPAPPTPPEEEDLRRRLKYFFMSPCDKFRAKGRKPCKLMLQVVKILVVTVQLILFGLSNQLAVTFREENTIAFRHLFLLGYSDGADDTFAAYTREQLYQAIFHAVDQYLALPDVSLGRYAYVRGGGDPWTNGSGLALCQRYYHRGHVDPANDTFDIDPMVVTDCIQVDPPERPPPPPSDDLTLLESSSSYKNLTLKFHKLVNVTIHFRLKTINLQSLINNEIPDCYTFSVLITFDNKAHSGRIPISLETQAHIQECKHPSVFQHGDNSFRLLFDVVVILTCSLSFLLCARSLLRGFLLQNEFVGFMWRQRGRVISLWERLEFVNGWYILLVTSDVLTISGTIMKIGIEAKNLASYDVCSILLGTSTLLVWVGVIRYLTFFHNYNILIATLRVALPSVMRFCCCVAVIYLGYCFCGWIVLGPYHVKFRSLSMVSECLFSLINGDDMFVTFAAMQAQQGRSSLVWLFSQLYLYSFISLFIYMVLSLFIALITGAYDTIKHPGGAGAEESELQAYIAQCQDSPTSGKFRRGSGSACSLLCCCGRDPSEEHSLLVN
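Cells: TRPML1-DL, 1X Tet inducer, ~16 h at 37 degrees C/5% CO2. Dye: ABD Ca8 no-wash + quencher, 45-90 min RT. Read: 10 s baseline, compound add, 110 s agonist phase; 54-4 EC80 (4uM final), 110 s antagonist phase.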
CtBP-E1A inh: CtBP/E1A binding inhibition. AlphaScreen GST-E1A/His-CtBP binding, 1536-well; active compounds read low; control for the full effect not named in the record. activity change, % (test concentration not listed). 0.49% of 340,000 active. AID 651724; in the data active means activity change below about -65%; inconclusive means about -30% to -65%; inactive means above about -30%; note: % is set by controls: 0 for no effect and ±100 for the full control effect
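Protein mix (5X: 125 nM each GST-E1A, His-CtBP) was incubated with pinned compound 2 h at 37 deg C in dark, in 50 mM Tris pH 8.0 buffer with 300 mM NaCl. Glutathione donor and nickel acceptor beads followed; AlphaScreen signal read after 1 h.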
An asterisk follows results filed as active; ? = inconclusive; · = no result given; & = joins results of further samples; [ ] = remark or other dose.

The opening two entries, to show the layout:
SMILES	Six1-Eya2 blk	PINK1 modulator	D2 potentiator	D2 ag	TRPML1 agonist	CtBP-E1A inh
COc1ccc(CN(C)C(C)C(=O)Nc2ccc([N+](=O)[O-])cc2Cl)cc1OC (stereo not given)	-1	1.0%	-9	-1.6	0.5	-1
O=C(Nc1ccccc1F)c1ccc(CNS(=O)(=O)c2cccc(C(F)(F)F)c2)cc1	5	2.4%	0	-1.2	-0.1	3

This part in full, from the start:
SMILES	Six1-Eya2 blk	PINK1 modulator	D2 potentiator	D2 ag	TRPML1 agonist	CtBP-E1A inh
COc1ccc(CN(C)C(C)C(=O)Nc2ccc([N+](=O)[O-])cc2Cl)cc1OC (stereo not given)	-1	1.0%	-9	-1.6	0.5	-1
O=C(Nc1ccccc1F)c1ccc(CNS(=O)(=O)c2cccc(C(F)(F)F)c2)cc1	5	2.4%	0	-1.2	-0.1	3
O=C(/C=C/c1cn(-c2ccccc2)nc1-c1cccnc1)c1ccco1	-5	-0.8%	-10	-3.3	0.1	-5
O=C1CCCN1CN(C(=O)c1ccccc1)c1ccc(F)cc1	-1	-0.2%	-18	0.9	-0.4	-8
O=C(Nc1c2c(nn1-c1ccc(F)cc1)CS(=O)C2)c1ccco1 (stereo not given)	6	0.2%	8	0.8	-0.2	6
O=C(COC(=O)c1ccccc1)NC12CC3CC(CC(C3)C1)C2	5	3.5%	-6	-3.6	0.6	0
COc1ccc(C(c2nnnn2CCc2ccccc2)N2CCN(C)CC2)cc1OC (stereo not given)	31	2.3%	-8	-2.6	-0.6	1
CN(C)S(=O)(=O)c1cccc(C(=O)N(Cc2ccc(F)cc2)Cc2ccco2)c1	2	-1.1%	-10	-3.2	1.3	0
CC(C)(C)OC(=O)N[C@@H](Cc1ccccc1)C(=O)N[C@@H](CO)[C@H](O)[C@@H]1C[C@@H]1C(=O)NC1CC1	-4	0.8%	-10	-3.8	-0.6	2
CSc1nc(O)c(Nc2cccc(Cl)c2)c(=O)[nH]1	-4	2.9%	19	-5.1	-0.5	·
Cc1ccc(-n2c(=O)cc(N3CCN(Cc4ccccc4)CC3)[nH]c2=O)cc1	8	1.3%	-5	1.3	-0.7	26
NC(=O)C1CCN(C2=C(Cl)C(=O)c3ccccc3C2=O)CC1	-6	-1.7%	-8	-0.2	6.1	-2
Cc1ccc(S(=O)(=O)CCC(=O)OCC(=O)NC(C)c2ccc(F)cc2)cc1 (stereo not given)	3	-1.2%	-3	4.7	4.0	2
COC(=O)C=CC(=NNc1ccccc1)c1ccccc1	-6	6.8%	-5	3.3	-0.4	-9
CC(C)c1cccc(-c2ccc3c(c2)S(=O)(=O)c2cccc(C(=O)NCc4ccccc4)c2C3=O)c1	1	10%	-12	-1.9	-0.1	-3
COCCNC(=O)Cn1ncc2ccsc2c1=O	11	0.4%	-3	-7.6	0.1	3
COc1ccc(NS(=O)(=O)c2ccc(S(=O)(=O)N(C)C)cc2)cc1S(N)(=O)=O	4	1.2%	-11	-2.1	1.0	·
Cc1ccc(N/C=C/C(=O)c2ccccc2)cc1C	11	2.9%	-19	-1.3	3.6	4
Cc1ccc(Cc2c(C3CCCCC3)nc3ccc(C)cn23)cc1	-5	?	-19	-5.8	-0.3	-6
C/C(Cn1nc([N+](=O)[O-])cc1C)=N\NC(=O)COc1c(Cl)cc(Cl)cc1Cl	0	6.0%	-25	-3.9	0.2	9
O=C(NCCc1cn2ccccc2n1)c1ccccc1F	-1	-0.4%	-38	-4.0	-0.6	-2
COc1ccc(CNC(=O)C2CCN(S(=O)(=O)c3ccc4nc5c(c(C(=O)O)c4c3)CC(C)CC5)CC2)cc1 (stereo not given)	-73*	0.8%&0.2%	-6	-0.4	-0.1&0.7	-82*
Cc1ccc(NC(=O)CCN2CC(C)OC(C)C2)cc1 (stereo not given)	7	0.7%	-6	-3.4	-0.3	16
O=C(Cc1ccc(-n2cccc2)cc1)NCc1cccs1	7	12%	-3	-2.5	0.4	2
O=C(Nc1ccc(OC(=O)c2cccnc2)cc1)c1cccnc1	-2	-0.9%	-15	-1.7	0.9	7
C/C(=N\N1CCN(C2c3ccccc3-c3ccccc32)CC1)c1ccco1	-18	2.1%	-23	-1.7	0.8	-18
COc1ccc(/C=N\NC(=O)CNC(=O)C(c2ccccc2)c2ccccc2)cc1[N+](=O)[O-]	-9	1.7%	-4	2.5	2.7	-8
CCCn1c(C)cc(/C=C(\C#N)C(=O)OCC(=O)NC(=O)NCC)c1C	-17	9.7%	-8	-2.4	0.1	-7
CCCCNC(=O)CCC(=O)Nc1ncc(-c2ccc(C)cc2)n1C	-3	0.6%	7	-0.3	-0.4	-1
Cc1nc(NC(=S)NC(=O)COc2ccccc2Cl)ccc1Br	12	0.8%	-4	-0.7	-0.7	4
CCCCCCOc1ccc(C(CC(N)=O)C(=O)O)cc1 (stereo not given)	-3	1.4%	2	-1.4	-0.6	6
COc1ccc(C(=O)NCC(C)(C)N2CCOCC2)cc1S(=O)(=O)N1CCCC1	6	-1.2%	3	3.1	0.0	11
COc1ccc(CNC(=O)[C@H](C)NC(=O)C2CCN(S(=O)(=O)c3ccc(F)cc3)CC2)cc1	-4	1.4%	7	-1.2	-0.6	0
COc1ccc(NC(=O)/C(C#N)=C/C=C/c2ccco2)cc1	-5	0.5%	-10	-8.4	-1.2	-3
CC(C)(C)C(=O)COC(=O)c1ccc(O)cc1	1	0.6%	-4	-1.7	-0.3	6
CS(=O)(=O)N1CCN(c2ccc([N+](=O)[O-])c(NCCN3CCOCC3)c2)CC1	2	1.8%	-23	-4.8	-0.4	5

Some values from the list.
Six1-Eya2 blk result of CC(C)(C)C(=O)COC(=O)c1ccc(O)cc1 → 1
Six1-Eya2 blk result of COc1ccc(C(=O)NCC(C)(C)N2CCOCC2)cc1S(=O)(=O)N1CCCC1 → 6
PINK1 modulator result of COc1ccc(CNC(=O)[C@H](C)NC(=O)C2CCN(S(=O)(=O)c3ccc(F)cc3)CC2)cc1 → 1.4%
D2 potentiator result of COc1ccc(NC(=O)/C(C#N)=C/C=C/c2ccco2)cc1 → -10
TRPML1 agonist result of CS(=O)(=O)N1CCN(c2ccc([N+](=O)[O-])c(NCCN3CCOCC3)c2)CC1 → -0.4
CtBP-E1A inh result of O=C(Nc1ccc(OC(=O)c2cccnc2)cc1)c1cccnc1 → 7

(further entries)
SMILES	Six1-Eya2 blk	PINK1 modulator	D2 potentiator	D2 ag	TRPML1 agonist	CtBP-E1A inh
CC(C)Oc1ccc(CCNC(=O)CC2C(=O)NCCN2C)cc1 (stereo not given)	-1	0.7%	-4	0.4	0.1	6
CCOC(=O)CSc1ncc(-c2ccc([N+](=O)[O-])cc2)[nH]1	-5	6.4%	-1	-1.7	0.0	-1
CNc1cncc(-c2ccc(OCCCN(C)C)nc2)n1	1	-0.2%	-6	-3.4	-0.5	5
COc1ccc(C(=O)c2ccc(Cl)cc2)c2ccccc12	36	9.1%	-1	-2.8	1.4	13
Cc1nn(C)c(C)c1CNC(=O)c1cnn2c1NC(c1ccccc1)CC2C(F)(F)F (stereo not given)	-4	·	4	-0.2	0.4	10
COc1ccc(-c2csc(N(CCCN(C)C)C(=O)c3ccc(C(C)(C)C)cc3)n2)cc1	-12	3.1%	-13	-1.4	0.0	5
Cc1cc(Nc2cccc([N+](=O)[O-])c2)n2c(nc3ccccc32)c1C#N	-12	?	16	-0.6	1.2	-3
Nc1nc(-c2ccco2)nn1C(=O)c1ccccc1	0	0.1%	-11	-5.0	1.2	9
COc1ccc(S(=O)(=O)Nc2ccc(C)c(S(=O)(=O)N3CCOCC3)c2)cc1[N+](=O)[O-]	1	-0.9%	-13	-3.2	0.4	-15
C[C@@H]1CN([C@H](C)CO)S(=O)(=O)c2ccc(Br)cc2O[C@@H]1CN(C)C(=O)CN1CCOCC1	6	0.0%	3	-1.8	-0.6	3
CC1C(=O)N(Cc2cn(CCC3OCCCO3)nn2)CCS(=O)(=O)N1Cc1ccc(-c2ccc(Cl)cc2)cc1 (stereo not given)	1	6.4%	-7	7.0	1.2	-1
N#Cc1cc([N+](=O)[O-])ccc1NCCCn1ccnc1	0	-0.8%	3	-4.4	0.3	-14
O=C(Cn1nc(C(=O)O)c2ccccc2c1=O)Nc1cccc(S(=O)(=O)N2CCCCC2)c1	?	0.5%	-8	-7.2	2.4	?
O=c1ccn([C@@H]2O[C@H](CNS(=O)(=O)c3cc4ccccc4s3)[C@@H](O)[C@H]2O)c(=O)[nH]1	3	2.0%	-1	-2.9	-0.8	1
CCOc1ccc(N(CC(=O)Nc2cccc(Cl)c2)S(=O)(=O)c2c(C)noc2C)cc1	7	?	0	-0.5	-0.1	-15
COc1ccc(-c2cc(C3CC3)nc(SCC(=O)c3cccs3)c2C#N)cc1	-1	11%	-17	-2.4	2.0	-9
CN(CC(=O)Nc1ccc(F)c(F)c1F)C(=O)C1(c2ccccc2)CC1	-1	1.9%	-11	-0.2	-0.8	1
Cc1ccc(NC(N)=S)cc1C	2	1.6%	-18	0.4	0.6	2
COc1ccc(Nc2ccc(S(=O)(=O)N3CCCCC3)cc2[N+](=O)[O-])cc1	?	9.6%	10	-2.8	0.9	-11
CN1CCN(C(=O)C2CCC(=O)N(Cc3cccc(C(F)(F)F)c3)C2)CC1 (stereo not given)	-9	1.2%	-6	-8.0	-0.2	7
CCOC(=O)C1C(=O)NC(SC)=C(C#N)C1c1ccccc1F (stereo not given)	2	5.4%[38.3 µM]	-3	-2.9	-0.5	2
Clc1ccc(N2CCCCCC2)nn1	5	-2.8%	-6	0.3	0.8	7
COc1ccc(CCNC(=O)c2ccc(NC(=O)CC3SC(N4CCCC4)=NC3=O)cc2)cc1 (stereo not given)	6	-0.5%	13	3.8	2.1	8
CCCCCC(=O)Nc1cccc(C2=NOC3(C2)C[C@@H](C(N)=O)N(C(=O)c2cc([N+](=O)[O-])cc([N+](=O)[O-])c2C)C3)c1 (stereo not given in full)	-4	2.5%	12	8.0	-0.5	-2
COc1ccc(S(=O)(=O)NCCC(=O)OCc2cc(=O)oc3cc(C)ccc23)cc1[N+](=O)[O-]	-16	-0.6%	-4	7.6	0.5	-3
Cc1nc(Nc2ccccc2O)c2oc3ccccc3c2n1	7	0.4%	-5	-1.8	-0.1	·
COc1ccc(-n2c(SCC(=O)Nc3cccc(S(N)(=O)=O)c3)nc3ccccc3c2=O)cc1OC	8	0.2%	-2	0.2	-0.2	4
Cc1cc2c(cc1C)[n+](C)cn2CC(O)COCc1ccccc1 (stereo not given)	1	0.6%[38.3 µM]	-24	-1.8	0.1	-6
CCc1nc2ccccc2c(C(=O)Nc2cccc(C)c2)c1C	-19	5.5%	-5	-0.6	0.5	3
O=C(O)C1=C[C@@H](c2coc3ccccc3c2=O)C[C@@H](OCCCCO)O1	-1	-0.2%	-11	-2.4	-0.4	-7
C[C@H](NC(=O)c1ccccc1Cl)C(=O)OCCOc1cccc(Cl)c1	-2	0.3%	-4	-4.3	2.7	·
Cc1ccc(NC(=O)CSc2ccc(-c3ccco3)nn2)c(C)c1	-1	0.2%	1	1.5	-0.7	-3
O=C(COC(=O)/C=C/c1cccc(F)c1)Nc1cccc(S(=O)(=O)NC2=NCCCCC2)c1	-17	2.2%	-3	-2.5	1.6	?
O=C(NCc1cccnc1)c1cn(-c2ccccc2)nc1-c1cccs1	0	-1.4%[38.3 µM]	-25	4.2	0.0	4
C=CCNC(=O)c1cccc(C(F)(F)F)c1	0	30%[38.3 µM]	-10	-2.8	0.0	5
